High-throughput results (PubChem BioAssay)
TRPML1 inh = qHTS for Inhibitors of the Human Mucolipin Transient Receptor Potential 1 (TRPML1); Mucolipin-1 (Homo sapiens), Q9GZU1; TRPML1-inducible cells, Ca2+ dye fluorescence, FDSS; hits give low values; inhibition of EC80 agonist-evoked calcium signal; activity change, negative = inhibition, % (concentration not given with the values); hit rate 0.02% among 390,000; in the data active means activity change below about -50%; inconclusive means about -30% to -50%; inactive means above about -30%;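 note: stimulus is agonist 54-4 at its EC80 concentration; % is set by controls: 0 for no effect and ±100 for the full control effect; compound concentration not given in the record; the text of the record puts the active cut at -80%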
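Calcium fluorescence in TRPML1-DL cells induced overnight with Tet: a 110 s read after compound pin addition, then a 110 s antagonist read after challenge with 54-4 at 4 uM final (EC80).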
ClpP mod = qHTS Assay for Activators of ClpP; purified B. subtilis ClpP, FRET peptide cleavage, 20 min; Potency, µM (doses to about 57.5 µM), inactives show at the highest dose activity change, negative = active; hit rate 1.9% among 340,000; active = well fitted falling curve with a large enough effect; inconclusive = small, poorly fitted or top-dose-only effect; inactive = no such curve, though single readings can be large or run the other way; note: potency is the fitted concentration of half-maximal effect; the source files actives as falling curves though it sought activators and does not explain the sign; nearly all actives have a fitted effect of over 65% in size; many hits overshoot -100%
Target sequence (P80244 whole entry, looked up): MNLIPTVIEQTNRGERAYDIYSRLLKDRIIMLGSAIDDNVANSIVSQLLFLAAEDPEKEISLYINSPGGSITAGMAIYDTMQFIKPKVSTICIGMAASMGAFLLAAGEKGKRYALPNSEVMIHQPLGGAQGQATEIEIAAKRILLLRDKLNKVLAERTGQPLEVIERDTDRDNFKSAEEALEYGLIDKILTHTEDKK
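Purified B. subtilis ClpP, 10 microg/mL final in Tris/HCl pH8 with KCl, BSA, glycerol and Tween-20, cleaved an Abz/nitrotyrosine-quenched decapeptide. Fluorescence (ex 320, em 430) was read at 0 and 20 min at room temperature. Delta was normalized to 5.8 microM ADEP and DMSO/no-enzyme controls.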
Menin MLL FP FL = qHTS Assay for Inhibitors Targeting the Menin-MLL Interaction in MLL Related Leukemias: Competition With Fluorescein Labeled MLL-derived Peptide. Fluorescence polarization, fluorescein-MLL peptide displacement from menin. FP activity change, % at 61.4 µM. 290,000 tested, under 10 active; inconclusive = falling polarisation curve, or a change in total fluorescence; inactive = total fluorescence flat and polarisation flat or rising; no compound was filed as active; the % refers to the polarisation; negative = inhibition;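 note: % of control where 0% means no effect; inhibitors lower the polarisation; unlabelled MLL peptide was the positive control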
TRPV1 PAM = HTS Assay for Compounds that Act as Potentiators of the Vanilloid Receptor 1. potentiation, % at 8.33 µM. hit rate 0.02% among 320,000. TRPV1-expressing cells, Fluo-8 calcium influx, capsaicin EC20 potentiation; host cell line not named in the record; control for the full effect not named in the record. Transient receptor potential cation channel subfamily V member 1 (Homo sapiens), Q8NER1; active means potentiation above 80%; inconclusive means 30% to 80%; inactive means below 30%; note: 0% is about no effect
Target sequence (Q8NER1 whole entry, looked up): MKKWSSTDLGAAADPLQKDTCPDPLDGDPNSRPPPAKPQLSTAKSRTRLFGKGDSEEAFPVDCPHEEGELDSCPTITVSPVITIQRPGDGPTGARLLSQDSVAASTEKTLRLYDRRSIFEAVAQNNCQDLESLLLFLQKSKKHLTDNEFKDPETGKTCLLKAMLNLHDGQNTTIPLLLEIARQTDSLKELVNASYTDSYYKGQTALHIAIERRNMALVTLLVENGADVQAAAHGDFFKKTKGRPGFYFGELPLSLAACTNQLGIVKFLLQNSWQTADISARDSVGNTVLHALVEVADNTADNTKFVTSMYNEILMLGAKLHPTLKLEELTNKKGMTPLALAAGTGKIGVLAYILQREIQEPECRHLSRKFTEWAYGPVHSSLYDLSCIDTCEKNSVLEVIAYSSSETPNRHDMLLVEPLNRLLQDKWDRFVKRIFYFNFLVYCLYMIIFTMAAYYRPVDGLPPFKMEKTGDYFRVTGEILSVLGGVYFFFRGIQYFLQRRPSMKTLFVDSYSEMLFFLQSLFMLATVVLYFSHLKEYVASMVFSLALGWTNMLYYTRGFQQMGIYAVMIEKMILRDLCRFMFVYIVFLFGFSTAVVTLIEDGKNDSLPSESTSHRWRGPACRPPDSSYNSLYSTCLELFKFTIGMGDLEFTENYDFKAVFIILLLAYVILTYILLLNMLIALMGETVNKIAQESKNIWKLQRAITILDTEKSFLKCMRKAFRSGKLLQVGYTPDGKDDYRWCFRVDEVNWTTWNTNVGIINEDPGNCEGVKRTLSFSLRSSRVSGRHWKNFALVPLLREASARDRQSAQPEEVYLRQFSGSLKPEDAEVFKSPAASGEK
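Fluo-8 calcium influx in TRPV1-expressing cells, kinetic read (ex 480/em 520 nm). Compound added and read 3 min for agonist activity, followed by capsaicin at EC20 final and 2 min further read for enhancement.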
Sfp inh = qHTS Assay for Inhibitors of Bacillus subtilis Sfp phosphopantetheinyl transferase (PPTase). 4'-phosphopantetheinyl transferase ffp (Bacillus subtilis), Q9F4F7. Biochemical Sfp PPTase activity, qHTS. Potency, µM, for the others: max response, negative = inhibition, hits mostly inhibitors. hit rate 3.5% among 310,000; active = well fitted inhibition curve with a large enough effect; inconclusive = small, poorly fitted or top-dose-only effect, or another doubt; inactive = no such curve, though single readings can be large or run the other way;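 note: the enzyme is Sfp with the accession as filed and its product quenches rhodamine fluorescence; potency is the fitted concentration of half-maximal effect; 0% = enzyme reaction without inhibitor and -100% = no enzyme wells; top concentration of the series not given in the record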
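Sfp 15 nM + cpd, 15 min RT; start w/ rhodamine-CoA 5 uM, BHQ-2-YbbR 12.5 uM (final); 50 mM Hepes pH 7.6, 10 mM MgCl2, 0.01% NP-40, 0.01% BSA; read 525/598 nm at 0 and 30 min.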
gsp antagonist = qHTS for Antagonists of gsp, the Etiologic Mutation Responsible for Fibrous Dysplasia/McCune-Albright Syndrome: qHTS; gsp-mutant cells, cAMP HTRF, 30 min; control for the full effect not named in the record; Potency, µM (highest dose often 76.9 µM), without a hit: at the highest dose activity change, negative = inhibition, actives largely listed as inhibitors; hit rate 0.4% among 340,000; active = falling curve of any shape with a large fitted effect; inconclusive = falling curve, mostly with a smaller effect; inactive = flat or rising curve; cell line not stated here;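 note: intracellular cAMP measured with PDE inhibitor Ro 20-1724 present during compound exposure; potency is the fitted concentration of half-maximal effect; % is set by controls: 0 for no effect and ±100 for the full control effect; nearly all actives have a fitted effect of over 65% in size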
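HTRF cAMP read-out (cAMP-d2 plus anti-cAMP antibody-K in lysis buffer, 30 min RT). Before lysis, cells are exposed to compounds with […] for 30 min at 37C in DPBS containing Ca/Mg, BSA and Tween 20.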
gsp agonist = qHTS for Agonist of gsp, the Etiologic Mutation Responsible for Fibrous Dysplasia/McCune-Albright Syndrome: qHTS | gsp mutant cells, cAMP HTRF, 30 min; control for the full effect not named in the record | Potency, µM (top dose mostly 76.9 µM), for the others: at the highest dose activation (cAMP increase), most hits filed as activators | hit rate 0.13% among 340,000 | AID 624287, 2012; active = well fitted activation curve with a large enough effect; inconclusive = small, poorly fitted or top-dose-only effect, or another doubt; inactive = no such curve, though single readings can be large or run the other way; cell line not stated here;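 note: phosphodiesterase inhibitor Ro 20-1724 added with compounds to block cAMP breakdown; potency is the fitted concentration of half-maximal effect; nearly all actives have a fitted effect of over 60% in size; about a fifth of the inactives were tested at one dose only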
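Cells stably selected in G418 were plated at 2000/well, grown 16-24 hr, then given compounds in DMSO with the PDE inhibitor […] (300 uM solution added) for 30 min at 37C; cAMP was read by HTRF.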
Numbers without * were called inactive; ? = inconclusive; . = no result given; & = joins results of further samples; [ ] = another dose, or the depositor's remark.

Values run as follows: TRPML1 inh	ClpP mod	Menin MLL FP FL	TRPV1 PAM	Sfp inh	gsp antagonist	gsp agonist
> COc1ccc(OC)c(/C=N/NC(=O)CNC(=O)c2ccc(S(=O)(=O)N3CCOCC3)cc2)c1
→ 8	-23%	4.2	-11	0%	7%	-5%[15.4 µM]
> CCOC(=O)C1Cc2c([nH]c3ccccc23)C(C)N1 (configuration not stated)
→ 2	-9.2%	-2.0	24	0%	4%	-34%
> Cc1cc(C(=O)NCc2ccccc2F)cs1
→ -9	0.3%	1.3	8	5%	7%	-21%
> Cc1nn(Cc2ccccc2Cl)c(C)c1NC(=O)c1ccn(C)n1
→ -8	-4.1%	-4.0	-10	-5%	11%	0%
> COc1ccc(CNC(=O)CSc2ncn[nH]2)cc1
→ 56	0.6%	1.2	-5	7%	0%	-9%
> CS(=O)(=O)N(CC(=O)NCCSc1ccccn1)c1ccc(F)cc1
→ -4	.	-6.4	-2	7%	5%	29%
> O=S(=O)(NCCc1nc2ccccc2[nH]1)c1ccccc1
→ -4	.	.	.	.	3%	3%[15.4 µM]
> CC(C)(C)c1ccc(C(=O)N2CCC(=O)N(C(COCc3ccccc3)Cc3ccccc3)CC2)cc1 (configuration not stated)
→ 38	-1.6%	0.0	11	-11%	-17%	4%
> CCOc1ccc(-c2nc(C#N)c(N3CCN(C)CC3)o2)cc1
→ 7	?	-1.8	-4	16%	2%	10%
> O=C1CCN(Cc2ccc([N+](=O)[O-])cc2)CCN1[C@H](CO)Cc1ccccc1
→ 19	0.2%&-0.1%	-1.6	13	11%	2%	.
> CCOc1ccc2nc(N=NC3=C(O)CC(C)(C)CC3=O)sc2c1
→ 17	-0.3%	-0.5	0	-16%	-17%	?
> COc1cc(/C=C/C(=O)OCc2csc(CC(=O)Nc3ccc(C)cc3)n2)ccc1OCC#N
→ -8	-27%	.	8	.	-5%	-3%
> CN(C)c1ccc(CN2CCC(C(N)=O)CC2)cc1
→ -6	-2.3%	3.8	3	19%	-4%	-77%[inhibitor]
> O=C(CNC(=O)c1ccc(Br)o1)Nc1ccncc1
→ -9	.	.	3	.	6%	-3%[15.4 µM]
> O=C(CN1C(=O)c2ccccc2S1(=O)=O)NC1CCCCC1
→ -7	.	0.0	-4	16%	6%	8%[15.4 µM]
> O=C(O)COCC(=O)Nc1ccc(-n2cnnn2)cc1
→ -11	-7.2%	-0.9	4	27%	7%	-1%
> CC(=O)Nc1ccc(NC(=O)CSc2nnc(-c3cccs3)n2C)cc1
→ -2	.	.	2	20%	9%	5%[15.4 µM]
> O=C(NCC(=O)N(Cc1cccs1)C(C(=O)NC1CCCC1)c1ccncc1)c1ccco1 (configuration not stated)
→ -8	0.0%	11	-6	25µM*	-13%	-1%
> CCN(CC(=O)Nc1ccc(OC)cc1)C(=O)c1ccc2ccccc2c1
→ -7	0.2%	.	.	.	-2%	11%[15.4 µM]
> CN=C(C)/C(C(=O)OC)=C(/O)c1c(F)cccc1F
→ -10	1.2%	4.3	-7	10%	7%	-33%[inhibitor]
> CC(=O)Nc1ccc(-c2csc(NC(=O)CC(NC(C)=O)c3ccccc3)n2)cc1 (configuration not stated)
→ 22	.	0.1	-21	?	8%	11%[15.4 µM]
> Cc1sc(NC(=O)c2cccs2)nc1-c1ccccc1
→ 4	-4.9%	2.3	2	15%	?	8%
> CCCN1CCN(C(=O)CCn2c(=O)c3cccn3c3cccnc32)CC1
→ 0	-6.6%	1.0	0	13%	2%	19%
> COc1ccc(-c2cc(C(=O)NCc3ccccc3)no2)cc1OC
→ -13	96%	6.1	9	-2%	6%	7%
> COc1ccc2cc3c(N)nn(C(=O)c4cccc(F)c4)c3nc2c1
→ -3	0.6%	1.5	6	-7%	7%	25%
> O=C(c1cccc(Oc2ccc([N+](=O)[O-])cc2)c1)N1CCOCC1
→ -6	0.1%	.	-8	9%	1%	-40%[inhibitor]
> O=C(O)c1ccccc1C(=O)c1ccc(N2CCOCC2)c([N+](=O)[O-])c1
→ 4	.	1.9	9	-11%	1%	5%
> N#Cc1ccccc1OCC(=O)NCC(c1ccc(F)cc1)N1CCOCC1 (configuration not stated)
→ -14	-2.4%	.	-12	.	6%	6%
> O=C(c1ccco1)N1CCN(C(=O)c2ccc(CS(=O)c3cccc(Cl)c3)o2)CC1 (configuration not stated)
→ 0	-0.1%	.	4	21%	-4%	7%
> Cc1ccc(OCCCSc2n[nH]c(N)n2)cc1
→ -16	-1.3%	-1.6	-10	15%	-1%	-40%[inhibitor]
> CC1CC(=O)N(CC(=O)NC2CCCCC2)c2ccccc2S1 (configuration not stated)
→ -1	-2.2%	1.8	-12	6%	9%	9%
> N#CCCN(C(=O)COC(=O)CCN=C1NS(=O)(=O)c2ccccc21)c1ccc(F)cc1
→ 16	-1.0%	.	16	.	-6%	?
> CCCc1cc(NC(=O)COC(=O)c2ccc(O)cc2O)n(-c2ccccc2)n1
→ -1	2.4%	.	.	.	?	0%
> CC(=O)c1ccc(NC(=S)N2CCN(S(=O)(=O)c3ccc(F)cc3)CC2)cc1
→ -2	19%	-4.4	-14	-1%	-11%	21%[15.4 µM]
> O=C(Cc1ccccc1)NNC(=O)c1ccc(NC(=O)c2ccccc2)cc1
→ -24	.	4.4	-4	-6%	2%	0%
> CCC1CCCCN1c1ccc([N+](=O)[O-])cc1/C=N/NC(=O)Cn1c2ccccc2c(=O)c2ccccc21 (configuration not stated)
→ -3	-10%	9.3	-20	-7%	-7%	-22%
> N/C(=N\OC(=O)Nc1ccccc1)c1ncc(C(F)(F)F)cc1Cl
→ -22	-0.1%	-0.1	-4	8%	1%	14%
> CN(C)c1[nH]c(=O)c(C#N)c2c1CCN2Cc1ccccc1
→ -5	0.8%	2.8	-8	-21%	-5%	?
> O=C(O)CN1C(=O)/C(=C\c2cc(Br)ccc2OCc2ccccc2F)SC1=S
→ 3	-0.3%	6.7	5	-19%	-23%	-3%
> O=C(c1ccc(Cl)c(S(=O)(=O)N2CCCCCC2)c1)N1CCCC(C(F)(F)F)C1 (configuration not stated)
→ -4	-2.9%	.	-28	.	-8%	-4%
> CN(c1cccc(NC(=O)Cc2ccccc2)c1)S(C)(=O)=O
→ 5	-2.3%	3.7	-22	19%	0%	2%
> COC(=O)c1ccc(COC(=O)c2ccc(SC)cc2OC)cc1
→ 16	-15%	3.3	6	-7%	-23%	?
> CC(=O)c1cccc(NC(=O)COC(=O)c2cccc(N3C(=O)c4ccccc4C3=O)c2)c1
→ 3	.	5.7	2	4%	-17%	-12%
> CCOc1ccccc1NC(=O)c1ccccc1-c1nc(-c2ccccc2)no1
→ 11	-0.9%	-0.6	0	5%	?	4%
> Cc1nnc(SCC(=O)N2CCN(S(=O)(=O)c3ccc(Cl)cc3)CC2)[nH]c1=O
→ 1	-0.9%	4.2	9	?	2%	4%
> O=C(N/N=C/c1c[nH]c2ccc(Br)cc12)C1CC1
→ 6	0.1%	-1.0	0	8%	4%	-44%[inhibitor]
> CC1Cc2ccccc2N1C(=O)c1ccc2c(c1)nnn2C (configuration not stated)
→ 11	-1.4%	2.2	-3	13%	3%	16%
> O=[N+]([O-])c1ccc(N2CCSCC2)cc1O
→ 21	3.0%	2.2	5	18%	3%	-9%
> Cc1cc(C)nc(SCc2nnc(SCC(=O)Nc3cc(C(F)(F)F)ccc3Cl)o2)n1
→ -4	-2.1%	2.1	-3	12%	7%	-14%
> Cc1cc(F)ccc1NS(=O)(=O)c1c(C)nc2scc(C)n2c1=O
→ 13&15	-19%	1.2	-3	11%	-12%	?
> O=C(NCc1ccccc1)c1c(Cl)nc(Cl)c(Cl)c1Cl
→ -21	.	4.6	-11	8%	-15%	2%[15.4 µM]
> CC(NC(=O)/C(=C/c1ccc2c(c1)OCO2)NC(=O)c1cccc([N+](=O)[O-])c1)C(=O)O (configuration not stated)
→ 7	.	-1.3	-1	1%	4%	-4%[15.4 µM]
> COc1ccc(NC(=S)NC(=O)/C=C/c2cccs2)cc1
→ -13	.	-3.2	-4	14%	-18%	-11%[15.4 µM]
> Cc1nn(CC(=O)NCC(C)c2ccccc2)c(=O)c2cc(-c3ccccc3)nn12 (configuration not stated)
→ -6	.	.	-10	15%	2%	2%
> COc1ccc(-c2[nH]ncc2N=Nc2cc(C)cc(C)c2)cc1
→ 4	.	-1.5	15	16%	7%	0%[15.4 µM]
> COc1ccc(CN2CCNC(=O)C2CC(=O)O)cc1OC (configuration not stated)
→ -10	0.1%	0.5	1	8%	7%	-102%[inhibitor]
> COc1cccc(NC(=O)C(=O)N/N=C/c2ccc3c(c2)OCO3)c1
→ 1	0.5%	1.0	2	8%	13%	-3%[15.4 µM]
> O=C(O)c1cc(-c2cccs2)nc2ccc(F)cc12
→ 6	3.6%	-3.5	4	20%	-18%	25µM*
> COc1ccc(-c2nnn(CC(=O)NCc3ccc4c(c3)OCO4)n2)cc1OC
→ 12	.	-1.5	6	-9%	3%	0%
